High-throughput results as filed in PubChem BioAssay.
LANA-H2A inh: blocks KSHV LANA binding to histone H2A/H2B | cell-free LANA-H2A/H2B peptide, fluorescence polarization | 0.6% of 320,000 active | Q9QR71 | inhibition, % (concentration not given with the values); in the data active means inhibition mostly above about 10%, no sharp cut-off; inactive means mostly below about 6.7%;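 further: stock transfer was 7.5 nL into about 10 µL; 0% = median of vehicle wells and 100% = median of positive control wells; one replicate is shown; the record names a cut of 25% in any replicate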
Calb FLC: affects C. albicans growth with fluconazole. 0.57% of 300,000 active. C. albicans CaCi-2 (fluconazole-resistant clinical isolate) + fluconazole, Alamar Blue growth, 48 h. growth inhibition, % (no concentration beside the values). AID 1979;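 active means most replicates above 75%; inconclusive means exactly half above 75%; inactive means most below 75%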;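 further: all wells also contain fluconazole at 8 µg/ml as a sub-toxic cotreatment; 0% = median of DMSO wells and 100% = median of geldanamycin control wells; wells of about 8 µL received 7.5 nL stock; the first replicate is given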
RanGTP-Imp inh: inhibitors of RanGTP-importin-beta interaction, primary screen, biochemical, FRET, CFP-Ran, YFP-importin-beta, homogeneous. cell-free CFP-Ran/YFP-importin-beta FRET ratio. inhibition, % (no concentration beside the values). 1.1% of 300,000 active;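 active means most replicates above 15%; inconclusive means exactly half above 15%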;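 further: 0% = DMSO wells and 100% = Ran loaded with GDP instead of GTP; wells of about 40 µL received 100 nL stock; the first replicate is given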
Beta2AR agonist: activates human beta-2 adrenergic receptor causing internalization. P07550. Am2.2-beta2AR cells, FAP receptor internalization, flow cytometry; reference of the scale not given here. response, % (no concentration beside the values). 0.43% of 340,000 active;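 active means response above a set limit, near 3 SD of response in nonfluorescent compounds, cut at about 42% in these data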;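 further: stock transfer was 100 nL into about 11 µL; a reference agonist was the positive control; negative values mostly stem from fluorescent compounds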
Target sequence (P07550 whole entry, looked up): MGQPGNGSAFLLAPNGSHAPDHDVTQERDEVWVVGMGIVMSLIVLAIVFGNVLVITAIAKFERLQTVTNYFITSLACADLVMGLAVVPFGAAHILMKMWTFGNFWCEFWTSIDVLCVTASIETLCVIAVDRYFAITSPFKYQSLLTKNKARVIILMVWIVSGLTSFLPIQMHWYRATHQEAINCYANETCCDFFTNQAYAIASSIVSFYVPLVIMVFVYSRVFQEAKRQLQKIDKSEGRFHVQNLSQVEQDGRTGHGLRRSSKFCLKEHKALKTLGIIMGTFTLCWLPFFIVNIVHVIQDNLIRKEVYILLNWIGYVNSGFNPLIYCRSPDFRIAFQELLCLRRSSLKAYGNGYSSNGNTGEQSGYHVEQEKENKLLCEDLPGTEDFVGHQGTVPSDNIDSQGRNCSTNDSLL
Vif A3G: inhibitors of Vif binding to APOBEC3G peptide, primary screen, biochemical, TR-FRET, GST-Vif 1-94, biotin-A3G peptide, dose response retest (AID 1117319); one-dose inhibition, %; IC50 in µM for titrated hits; TR-FRET GST-Vif / biotin-A3G peptide binding; higher % means a stronger effect; test concentration not given here; strong numbers were not always called active; 0.57% of 260,000 active;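 active means above the screen mean plus three standard deviations and confirmed in dose response; inconclusive means results disagree or hit not tested in dose response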;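 further: Vif residues 1-94 fused to GST binding biotinylated APOBEC3G peptide 110-148; 0% = full assay without inhibitor and 100% = GST in place of GST-Vif; retest series ran down from 100 µM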
HNF4A DNA FP: change in binding of human HNF4 alpha to DNA. activity change, % at 10 µM. AID 1224865. HNF4a-FITC DNA binding, fluorescence polarization, 1 h. P41235. 0.3% of 360,000 active; in the data active means activity change above about 30%, passing the limit was not always enough;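 further: controls were the assay level and a saturating level of protein; the project sought stronger binding though the title names inhibitors; some compounds called inactive have numbers as strong as hits; positive values seem to mean higher polarization but the record does not say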
Target sequence (P41235 whole entry, looked up): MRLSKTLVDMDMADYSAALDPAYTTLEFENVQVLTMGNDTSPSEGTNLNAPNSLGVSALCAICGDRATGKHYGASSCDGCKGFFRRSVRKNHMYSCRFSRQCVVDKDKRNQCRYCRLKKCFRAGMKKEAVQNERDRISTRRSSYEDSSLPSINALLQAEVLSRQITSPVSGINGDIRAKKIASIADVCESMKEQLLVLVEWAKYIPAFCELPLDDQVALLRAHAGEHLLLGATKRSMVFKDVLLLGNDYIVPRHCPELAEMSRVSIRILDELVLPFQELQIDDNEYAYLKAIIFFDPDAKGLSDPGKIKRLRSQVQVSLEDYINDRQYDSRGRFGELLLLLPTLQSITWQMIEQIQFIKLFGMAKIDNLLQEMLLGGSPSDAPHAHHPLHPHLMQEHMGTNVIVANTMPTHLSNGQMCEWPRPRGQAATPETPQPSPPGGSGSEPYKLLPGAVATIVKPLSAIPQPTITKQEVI
ALR inh: inhibitors of human sulfhydryl oxidase ALR; P55789; purified ALR, DTT oxidation, H2O2 HRP-luminol luminescence; inhibition, % (no concentration beside the values); 3.8% of 290,000 active;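 active means mean and each replicate at 75% or more; inconclusive means only one of the two met; inactive means neither met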;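 further: stock transfer was 7.5 nL into about 7.5 µL; 0% = neutral wells and 100% = wells with inactivated enzyme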
Target sequence (P55789 whole entry, looked up): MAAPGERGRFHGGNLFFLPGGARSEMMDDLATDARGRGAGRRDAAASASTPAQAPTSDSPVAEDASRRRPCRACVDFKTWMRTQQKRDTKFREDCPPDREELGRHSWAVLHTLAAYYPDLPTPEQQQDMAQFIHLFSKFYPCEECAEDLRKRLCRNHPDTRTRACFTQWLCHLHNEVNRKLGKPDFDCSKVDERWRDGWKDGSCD
An asterisk follows results filed as active; u = inconclusive; x = no result given; & = joins results of further samples.

compound	LANA-H2A inh	Calb FLC	RanGTP-Imp inh	Beta2AR agonist	Vif A3G	HNF4A DNA FP	ALR inh
CCOC(=O)C1=C(C)Nc2ccccc2N=C1NC(=O)CCCN1C(=O)c2ccccc2C1=O	4.6	-1	-1.4	-8	1%	3.5	-4
Cc1cc(C)cc(NC(=O)C2C3C=CC4(O3)C2C(=O)N(CCCN2CCCCC2)C4C(=O)NC2CCCCC2)c1 (centres undefined)	-2.2	-6	-4.1	-5	x	1.1	3
CC(C)(C)C1CCC(OCC(O)CN2CCN(c3ccccn3)CC2)CC1 (centres undefined)	0.7	-3	0.5	2	x	-1.3	0
O=C(NCc1ccco1)c1ccc(COc2cccc3ccccc23)cc1	-1.7	-5	-1.1	3	x	0.2	x
CCN1C=C(C(=O)OC)C(c2cccc(C)c2)C(C(=O)OC)=C1	1.1	-16	3.6	-2	-1%	1.5	25
COc1ccc(C(CNC(=O)C2CC(=O)N(Cc3ccccc3)C2)N2CCCC2)cc1 (centres undefined)	-8.9	x	x	1	-2%	0.3	x
COc1cccc(C(=O)Nc2ccc(NC(=O)C3C4C=CC(C4)C3C(=O)O)cc2)c1 (centres undefined)	-1.0	-5	1.4	0	x	3.4	-16
CC/C(=N/NC(=O)c1ccccc1)c1ccc(OCCN2CCOCC2)cc1	4.4	2	1.3	-7	6%	0.6	-2
Cc1nn(Cc2ccccc2Cl)c2sc(C(=O)OC3CCCC3=O)cc12 (centres undefined)	-1.0	0	-0.8	11	-4%	1.6	3
O=C1N(Cc2cccnc2)C[C@@H]2C[C@@H](c3ccc4nonc4c3)N3CCC[C@@]123	5.0	10	1.5	6	11%	2.2	-25
Cc1c(Br)c(C(N)=O)nn1C	1.1	6	4.6	5	-4%	-2.1	-8
CC(C)Sc1nc2ccccc2n1CC(=O)O	5.8	-15	1.2	-4	x	-0.5	-18
O=C(O)CC(NCc1ccco1)C(=O)OCCc1ccccc1 (centres undefined)	-2.5	-4	3.0	6	-4%	0.8	x
O=C(NNC(=O)c1cc(S(=O)(=O)N2CCOCC2)c(Cl)cc1Cl)c1ccccc1F	4.9	x	x	8	-3%	0.5	42
Cc1cc(C)cc(NC(=O)CSc2nnc(-c3ccccc3)n2N)c1	1.8	-16	-1.3	-3	20%	1.8	2
Cc1ccc(N2C(=O)C3C(C2=O)C(C(=O)c2ccc(Cl)cc2)N2CCCC32)cc1 (centres undefined)	-3.6	0	-30	4	-9%&9%	2.6	1
CC(C)CN(C(=O)CSc1ncnc2sccc12)C1CCS(=O)(=O)C1 (centres undefined)	-0.4	x	x	0	x	2.7	5
CC(C)(C)N(Cc1ccccc1)C(=O)COC(=O)CN1C(=O)C2CC=CCC2C1=O (centres undefined)	-0.6	-1	-0.1	3	9%	-3.7	-4
CC1=C(C(=O)Nc2cc(C(=O)NCCC(C)C)ccc2C)SCCO1	-0.3	-4	2.9	-10	2%	0.2	-3
CS(=O)(=O)N(CCc1ccccc1)CC(=O)NCc1ccccn1	2.1	-1	0.4	-3	-3%	-3.2	-18
Cc1ccc2nc(N3C(=O)C(O)=C(C(=O)c4ccc(C)o4)C3c3ccc(O)cc3)sc2c1 (centres undefined)	x	x	x	23	-40%	16	45
Cn1c(CO)cnc1S(=O)(=O)Cc1ccc([N+](=O)[O-])cc1	0.1	-7	-0.9	-6	6%	-1.8	0
CCCCc1cc(=O)oc2cc(OCC(=O)N3CCC(C(N)=O)CC3)ccc12	-3.3	-7	-0.8	6	x	-0.9	-34
Cc1cccc(NC(=O)C(C)OC(=O)c2ccccc2NS(=O)(=O)c2cc(C)c(C)c([N+](=O)[O-])c2)c1 (centres undefined)	-3.3	4	1.2	4	x	1.0	-25
CCCCNC(=S)Nc1ccc2nc3n(c(=O)c2c1)CCCCC3	2.9	-4	-2.3	-19	-4%	0.2	20
COc1cccc(OCC(O)CN2CCN(c3ccccn3)CC2)c1 (centres undefined)	4.7	-7	0.5	-1	x	1.2	-6
Cc1ccccc1C(=O)NC1CCN(Cc2nnnn2C2CCCC2)CC1	3.0	-3	-1.1	4	-1%	-4.3	-12
CCOC(=O)CNC(=O)C(Cc1ccccc1)NS(=O)(=O)c1cccs1 (centres undefined)	0.0	x	x	24	-6%	0.0	-10
CCn1c(=O)n(CC)c2cc(N3CCCC3)c(NC(=O)c3cccc(C)c3)cc21	-2.8	3	5.6	4	x	0.2	u
CCN(C(=O)Cc1cccs1)c1nnc(-c2cccnc2)s1	7.4	x	x	-13	4%	4.5	16
COCCNC(=O)c1cccc(OC2CCN(Cc3ccc(OC(F)F)cc3)CC2)c1	-3.5	2	-2.6	-4	x	-2.3	x
C=CCn1c(SCC#N)nnc1-c1ccc2ncccc2c1	6.2	-1	-2.5	2	-4%	-0.1	x
CC(Oc1cccc2ccccc12)C(=O)N/N=C/c1cccnc1 (centres undefined)	3.5	5	6.6	0	x	2.8	-8
Cc1nn(C)c(C)c1CN(C)C(=O)c1nn2c(c1Br)NC(c1cccs1)CC2C(F)(F)F (centres undefined)	-8.5	-13	-1.6	-1	-2%	0.3	-2
NC(CCCCc1ccccc1)c1cccc2ccccc12 (centres undefined)	-0.6	-5	1.8	x	x	x	-1
CCCCS(=O)(=O)NC1=NCN(Cc2ccco2)CN1	-2.8	-5	-1.0	0	15%	1.2	-4
CCC1Oc2ccc(C)cc2N(CC(=O)NCc2cc(OC)ccc2OC)C1=O (centres undefined)	2.8	-14	2.4	3	-2%	0.8	-1
CC(C)(C)NC(=S)Nc1ccc(Nc2ccccc2)cc1	-1.5	8	2.8	-6	13%	-0.9	99*
O=C(COC(=O)c1ccc(Cl)nc1)Nc1cccc(S(=O)(=O)N2CCCCC2)c1	-2.9	x	x	-4	5%	0.6	0
CN(C)CCCNC(=O)c1cc(S(=O)(=O)N2CCOCC2)ccc1F	3.2	-6	-2.9	-4	-3%	4.5	-12
COc1ccccc1NC(=O)C(=O)c1cn(CC(=O)N2CCCC2)c2ccccc12	3.8	2	3.2	5	x	-2.3	-11
CCCCNC(=O)/C(C#N)=C/c1ccc(-c2ccc(S(=O)(=O)N3CCOCC3)cc2)o1	0.4	0	u	14	3%	2.9	-56
Clc1ccc(SCc2csc(N3CCOCC3)n2)cc1	-0.1	-2	-0.5	8	-2%	5.9	-2
CN1CCO/C1=C(\C(Cl)=C(Cl)Cl)[N+](=O)[O-]	-1.6	-11	-1.0	-1	x	0.6	-14
CC1(c2ccc(OC(F)F)cc2)NC(=O)N(CC(=O)Nc2ccc(F)cc2)C1=O (centres undefined)	5.3	-10	-1.0	12	x	0.7	-2
Cc1ccccc1-n1c(=S)[nH]c2nc3c(cc2c1=O)CCCC3	2.6	27	4.7	1	x	0.8	98*
O=S1(=O)[C@H]2C[C@@H]3C=C[C@@]2(CN1Cc1cccc(F)c1)O3	4.4	-3	-0.9	3	x	2.1	12
Nc1ncnc(Nc2ccccc2Oc2ccccc2)n1	x	x	x	-14	2%	-0.5	x
COc1ccc(-c2ccc(/C=C3/C(=N)N4C=CSC4=NC3=O)o2)c([N+](=O)[O-])c1	0.4	-6	-3.1	33	x	1.9	-33
CCOC(=O)C1CCCN(Cc2ccc(O)c(OC)c2)C1 (centres undefined)	-0.2	4	-4.6	-2	65%	-1.7	16
O=C(NCCCc1ccccc1)c1cc([N+](=O)[O-])ccc1Cl	4.9	-9	1.4	-5	-5%	5.0	3
COc1ccc(C(=O)NN2C(=S)N(c3ccc(OC)cc3)C(=O)C2CC(N)=O)cc1 (centres undefined)	4.8	-2	7.8	4	x	0.2	x
COc1ccc(NC(=O)CN2CCC(n3c(C)nc4cc(F)ccc43)CC2)c(OC)c1	1.9	14	4.5	9	6%	-2.6	-1
Cc1c(O)ccc2c(CC(=O)N[C@@H](Cc3c[nH]c4ccccc34)C(=O)O)cc(=O)oc12	0.9	-3	21*	7	2%	-1.4	x
NC(=O)C1CCN(C(=O)C2CC(=O)N(c3ccc4c(c3)OCCO4)C2)CC1 (centres undefined)	-1.1	x	x	-2	x	2.3	2
COc1ccccc1NC(=O)N1CCCC1C(=O)NC1CCCCC1 (centres undefined)	-2.0	-29	-0.7	-9	68%	1.1	-3
Cc1ccc2[nH]cc(CCNC(=O)c3ccc4c(c3)OCO4)c2c1	2.3	-2	-0.8	3	x	1.2	28
CCc1ccc(/C=C2/SC(=S)N(CCCC(=O)Nc3ccccc3C(=O)O)C2=O)cc1	-2.4	86*	-1.1	12	4%	-8.6	x
CCc1cccc2c(/C=N/NC(=O)c3cccc(S(=O)(=O)Nc4ccccc4Cl)c3)c[nH]c12	-6.6	-13	0.0	5	14%	0.8	8
N#CCC(=O)Nc1ccc(C(=O)NCc2cccc(Cl)c2)cc1	11	-1	-1.1	12	14%	2.4	98*

Next section
compound	LANA-H2A inh	Calb FLC	RanGTP-Imp inh	Beta2AR agonist	Vif A3G	HNF4A DNA FP	ALR inh
O=C(NCc1ccco1)c1c(F)c(F)c(F)c(C(=O)NCc2ccco2)c1F	-1.5	-6	1.3	2	u	-2.9	4
CC(C)OCCCNC(=O)CCC(=O)NNc1nc2ccccc2c2nc(-c3ccccc3)nn12	-7.3	-5	1.4	4	26%	2.7	-2
Cc1cc(NC(=O)c2ccccc2)nc(C)n1	-3.9	6	-3.8	1	-3%	-0.6	x
COC(=O)c1c(NC(=O)C2C3CCC(C3)C2C(=O)O)sc2c1CCCCC2 (centres undefined)	2.5	-3	-3.6	4	-1%	1.1	11
CC(=O)N/N=C(\C)c1cccc(C(F)(F)F)c1	0.5	14	-0.5	1	-1%	-3.1	-7
CC(=O)c1cccc(N(CC(=O)NC2CCCC2)C(=O)c2csnn2)c1	2.1	2	-1.5	-10	4%	-0.2	-3
O=C(CCc1nc2ccccc2c(=O)[nH]1)N1CCN(c2ccc(F)cc2)CC1	3.1	22	-1.6	-1	-3%	-2.3	15
COc1cccc(CC(=O)OCC(=O)N(C)CC(=O)Nc2ccc(Cl)c(C(F)(F)F)c2)c1	2.0	20	1.7	-2	3%	-1.6	x
CCN(CC)C(=O)Cn1nc(-c2ccccc2O)nc1SCC(=O)Nc1ccc(OC)cc1	-1.3	0	3.5	-5	31%	-0.6	-3
C=CCN(C(=O)CNC(=O)c1cccs1)C(C(=O)NC1CCCCC1)c1cccnc1 (centres undefined)	-2.2	6	-3.1	6	15%	3.1	0
CCOc1ccc(C(C)=O)cc1CSc1nc2nc(C)cc(C)n2n1	7.1	-4	-0.3	-16	-1%	1.0	-2
COc1ccccc1N1CCN(CC(=O)Nc2c(C)n[nH]c2C)CC1	-4.9	2	1.6	0	-3%	-5.4	14
CS(=O)(=O)N1CCC(C(=O)Nc2ccccc2F)CC1	1.8	-4	1.9	-9	2%	-2.3	-8
CCC12C(=O)C(CC)(C(c3ccccc3)=C1c1ccccc1)[C@@H]1C(=O)N(c3ccc(C)cc3)C(=O)C12 (some centres undefined)	4.2	-11	4.2	2	6%	-0.4	52
Cc1ccc(CNC(=O)Nc2ccccc2)n1C	9.4	-8	4.4	4	1%	8.1	-9
COc1ccccc1CNC(=O)c1cc(S(=O)(=O)N2CCCCC2)c[nH]1	-0.5	-3	4.9	-10	x	-1.9	10

Full records from above. Screens in order: LANA-H2A inh | Calb FLC | RanGTP-Imp inh | Beta2AR agonist | Vif A3G | HNF4A DNA FP | ALR inh
CC(C)OCCCNC(=O)CCC(=O)NNc1nc2ccccc2c2nc(-c3ccccc3)nn12 across the screens: -7.3 | -5 | 1.4 | 4 | 26% | 2.7 | -2
COc1ccccc1N1CCN(CC(=O)Nc2c(C)n[nH]c2C)CC1 across the screens: -4.9 | 2 | 1.6 | 0 | -3% | -5.4 | 14
